# Compound activity deposited in PubChem by several laboratories.
# Mtb hypoxia inh = inhibitors of hypoxia-regulated fluorescent reporter in Mycobacterium tuberculosis. fluorescence inhibition, % (no concentration beside the values). M. tuberculosis hypoxia-regulated fluorescent reporter, fluorescence. 0.1% of 300,000 active;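 active = 35 to 45% if threefold the growth effect, above 45% if 1.5-fold the growth effect; inactive = the rest, general growth blockers included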;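 also: wells of about 50 µL received 100 nL stock; 0% = vehicle wells and 100% = reference inhibitor wells; whole bacteria with a GFP reporter of the hypoxia response; strong numbers were not always called active; many hits fall short of the cut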
# ugtP null kill = kills S. aureus RN4220 lacking UgtP | S. aureus RN4220 ugtP deletion, OD600 growth, 16 h; some inactives read as strong as hits | growth inhibition, % (no concentration beside the values) | 0.54% of 330,000 active;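 active = z-score under -3 and OD600 up to 0.15 on both plates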;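 also: plate controls were untreated wells for no effect and antibiotic for full effect; wells of about 80 µL received 100 nL stock; the first replicate is given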
# RN4220 kill = kills Staphylococcus aureus RN4220. S. aureus RN4220 growth, OD600, 16 h. inhibition, % (test concentration not listed). 0.33% of 330,000 active;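 active = z-score of -3 or lower and OD600 up to 0.18 on both plates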;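 also: plate controls were untreated cells for no effect and reference antibiotic for full effect; stock transfer was 100 nL into about 80 µL; one replicate is shown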
# Bead autofluor = compound fluorescence in toxin protease inhibitor counterscreen; compound autofluorescence counterscreen, microsphere flow cytometry; active compounds read high; fluorescence intensity (concentration not given with the values); 3.1% of 360,000 active;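 active = at least 3 SD above the mean of all compounds, about 16000 in these data; inconclusive = too few beads counted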;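 also: 100 nL of 1 mM stock went into each well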
# BJeLR viability = BJeLR cell viability loss; BJeLR (HRASV12) viability, CellTiter-Glo ATP luminescence, 48 h; reference of the scale not given here; inhibition, % (concentration not given with the values); 0.17% of 300,000 active;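 active = replicate mean above 50%; inconclusive = above 50% but judged a plate artefact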;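 also: 50 nL library stock added to about 25 µL; numbers are from one replicate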
# PrP UTR inh = suppresses PrP 5' UTR mRNA reporter expression; cell-based PrP 5' UTR mRNA reporter, plate reader; inhibition, % (concentration not given with the values); 0.35% of 340,000 active;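 active = every replicate at 50% or more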;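 also: 0 = median of the neutral control wells; tested in H4 reporter cells; numbers are from one replicate; inactives centre near -14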
# Mtb hypoxia inh growth = recorded beside Mtb hypoxia inh, whose call it bears; growth inhibition, %; measured here: M. tuberculosis growth (absorbance);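 0% = vehicle and 100% = reference antibiotic; read after six days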
# An asterisk follows results filed as active; ? = inconclusive; / = not tested or not shown. No enrichment for hits; overall some 3.9% were active at least once.
SMILES,Mtb hypoxia inh,Mtb hypoxia inh growth,ugtP null kill,RN4220 kill,Bead autofluor,BJeLR viability,PrP UTR inh
Cc1cc2ccccc2n2c(SCC(=O)Nc3ccc(S(=O)(=O)N4CCC(C)CC4)cc3)nnc12,11.0,15.6,-25.0,-0.1,2490,-11.4,-15.3
CCn1cc(Cl)c(C(=O)Nc2c(C)nn(Cc3c(F)c(F)c(F)c(F)c3F)c2C)n1,5.9,10.2,7.7,4.9,4843,-8.9,-6.5
COc1ccc(C=NN2C(=O)CSC2=S)cc1Br,8.3,4.5,-12.3,10.3,/,/,/
Cc1ccc(C)c(NC(=O)NC2CCCCCCC2)c1,8.7,5.4,11.9,5.1,4364,-4.7,-5.0
Cc1ccc(N(C(=O)Cn2nnc3ccccc32)C(C(=O)NCc2ccco2)c2cccnc2)cc1 (stereo not given),/,/,10.2,0.4,2419,-6.7,3.3
CCOC(=O)N1CCN(C(=S)Nc2cc(S(=O)(=O)N3CCOCC3)ccc2Cl)CC1,5.4,13.6,2.6,3.6,4276,6.0,22.0
S=C(NCC1CCCO1)N1CCN(c2ccc(Cl)c(Cl)c2)CC1 (stereo not given),21.5,19.5,-18.4,4.7,4118,13.3,29.0
CCc1sc(C(=O)NCCc2ccc(S(N)(=O)=O)cc2)cc1Br,-0.7,-0.5,10.1,3.1,4800,2.2,-33.7
CC(CCc1ccccc1)N1CCN(Cc2ccccc2)CC1 (stereo not given),7.4,3.5,14.3,0.5,2208,-2.0,-16.1
COc1cccc(NC(=O)CN(C)C(=O)CC(NC(=O)c2ccccc2Cl)c2ccccc2)c1 (stereo not given),6.5,0.7,-2.6,-0.4,4061,/,-18.7

# A section taken from the entries so far, for reference:
SMILES,Mtb hypoxia inh,Mtb hypoxia inh growth,ugtP null kill,RN4220 kill,Bead autofluor,BJeLR viability,PrP UTR inh
CCOC(=O)N1CCN(C(=S)Nc2cc(S(=O)(=O)N3CCOCC3)ccc2Cl)CC1,5.4,13.6,2.6,3.6,4276,6.0,22.0
S=C(NCC1CCCO1)N1CCN(c2ccc(Cl)c(Cl)c2)CC1 (stereo not given),21.5,19.5,-18.4,4.7,4118,13.3,29.0
CCc1sc(C(=O)NCCc2ccc(S(N)(=O)=O)cc2)cc1Br,-0.7,-0.5,10.1,3.1,4800,2.2,-33.7
CC(CCc1ccccc1)N1CCN(Cc2ccccc2)CC1 (stereo not given),7.4,3.5,14.3,0.5,2208,-2.0,-16.1
COc1cccc(NC(=O)CN(C)C(=O)CC(NC(=O)c2ccccc2Cl)c2ccccc2)c1 (stereo not given),6.5,0.7,-2.6,-0.4,4061,/,-18.7

# The list continues.
SMILES,Mtb hypoxia inh,Mtb hypoxia inh growth,ugtP null kill,RN4220 kill,Bead autofluor,BJeLR viability,PrP UTR inh
CCOC(=O)c1cnc2c(C)cccc2c1NCc1ccco1,5.5,7.0,-9.6,6.5,8347,11.9,-4.6
COc1cccc(-n2c(SCC(N)=O)nc3ccccc3c2=O)c1,-5.8,1.5,7.0,7.6,3468,-3.8,-10.5
O=C(COC(=O)c1ccc(F)c(S(=O)(=O)N2CCOCC2)c1)c1ccc(Cl)cc1,1.7,4.4,0.7,4.3,5826,/,-19.8
Cc1ccc(S(=O)(=O)N2CCOC23CCN(S(=O)(=O)c2c(C)cc(C)cc2C)CC3)cc1,-4.6,8.8,-4.9,-1.1,5525,5.2,-24.8
CCCCN1C(=O)C(O)=C(C(C)=O)C1c1ccc(OC)cc1OC (stereo not given),/,/,9.8,1.7,3677,0.8,-3.8
O=C(Cn1nnc2ccccc21)N/N=C\C=C\c1ccccc1,/,/,/,/,7087,4.5,-3.3
CCCCCSc1nnc(-c2cc(Br)ccc2N)c(=O)[nH]1,3.2,3.6,-6.0,11.3,6829,-2.0,-4.0
COC(=O)CN(C(=S)Nc1ccccc1)C1CC(=O)N(c2ccc(OC)cc2)C1=O (stereo not given),-3.7,1.4,1.3,-2.0,8017,2.8,-7.8
Cc1cccc(NC(=O)NC2CC3CCC(C2)N3Cc2ccco2)c1 (stereo not given),8.8,8.9,9.7,5.4,3578,-2.6,3.8
CN(C)c1nc(-c2cccs2)cc(C(F)(F)F)c1C#N,4.4,-2.0,8.3,5.9,/,-2.9,-19.2
CCc1ccc(OC)c(S(=O)(=O)NCc2cccs2)c1,8.3,5.8,4.0,6.8,2892,/,-6.3
O=S1(=O)C2CC3C=C[C@@]2(CN1Cc1cccc(F)c1)O3 (stereo not given in full),2.3,8.2,-1.6,5.7,/,/,/
O=C(NCCCc1ccccc1)C1CCC(CNc2c(N3CCCCC3)c(=O)c2=O)CC1 (stereo not given),-2.2,17.8,5.0,2.3,3915,-14.8,-1.6
FC(F)(F)c1cc(-c2cccs2)nc(-n2cc(Cl)cn2)n1,1.5,3.2,-20.2,-3.0,3993,-11.0,-15.3
Cc1nc2ccc(NC(=S)N3CCC(C)CC3)cc2nc1C,8.4,11.4,-4.6,6.2,4699,1.1,-7.1
O=C(O)CC1c2cc(C(F)(F)F)ccc2S(=O)(=O)N1Cc1ccccc1 (stereo not given),13.0,6.8,6.8,5.7,/,/,/
Cc1ccc(SCC(=O)OCC(=O)NCCc2ccccc2)cc1,3.0,6.2,-0.3,1.0,3811,/,-10.3
CC1=C(C#N)C2C(C1=NO)C2(C)C (stereo not given),0.9,-8.2,7.0,2.6,/,/,/
COc1ccc(OC)c(NC(=O)CSc2nc3nc(C)cc(C)n3n2)c1,6.2,4.4,6.0,4.9,6356,/,-0.4
CCOc1ccc(-c2csc(Cn3c(CN4CCN(C)CC4)nc4ccccc4c3=O)n2)cc1,-3.1,11.8,4.5,2.8,2191,4.2,-44.8
COc1ccccc1N1CCN(CCCCOc2cccc3ccccc23)CC1,-0.2,1.9,54.8,66.2,2472,0.0,-6.7
Cc1ccc(NC(=O)CSc2nncc3ccccc23)cc1,9.2,5.1,6.7,2.9,3096,-4.6,-7.9
CCOC(=O)C1C(=O)NC(C)C1c1ccccc1 (stereo not given),12.4,13.7,-4.1,3.5,3060,-2.3,-7.8
COc1ccc(Cl)cc1-c1n[nH]c(=S)n1C1CCCCC1,/,/,15.4,-0.6,3495,-1.9,6.8
CSc1nc2c(c(-c3ccccc3)c1C#N)CCC2,9.1,10.7,83.4*,-4.5,21295*,-5.9,3.8
O=C(NN=C/C(Cl)=C/c1ccccc1)c1ccccn1,-3.0,2.9,3.8,3.8,/,/,/
C=CCOc1ccc2c(c1)C(=NO)c1cc(OCC=C)ccc1-2,7.1,2.9,81.3,14.6,5791,-0.9,-26.1
Cc1cccc(NC(=S)NC(NC(=O)OCc2ccccc2)C(Cl)(Cl)Cl)c1 (stereo not given),-6.1,-5.8,-44.7,-6.9,10001,-10.4,-11.4
COc1ccc(C2(CNC(=O)Cc3ccc(OC)c(OC)c3)CCCC2)cc1,10.2,9.8,-2.5,5.6,4563,5.3,4.5
O=C(Nc1ccon1)C12CC3CC(C1)CC(n1cnc([N+](=O)[O-])n1)(C3)C2,0.0,13.4,43.3,-9.1,2079,5.4,-6.6
O=C(Nc1ccccc1F)Nc1ccccc1F,6.4,-3.7,-6.2,4.5,2438,5.3,-89.5
O=C(CN1C(=O)c2ccccc2S1(=O)=O)NCc1ccccc1Cl,/,/,10.5,0.9,5702,-3.9,6.1
Cc1ccc(OCC(=O)N/N=C/C=C/c2ccco2)cc1C,/,/,/,/,2631,7.6,-15.2
Cc1ccc(S(=O)(=O)NC(CC(C)C)C(=O)NCC(c2ccco2)N2CCCCC2)cc1 (stereo not given),2.1,7.2,1.9,0.1,9910,/,33.5
CCN1C(=O)[C@@H]2[C@@H](c3ccc(SC4CCCCC4)cc3)N3CCC[C@@]3(C(=O)OC)[C@@H]2C1=O,/,/,/,/,2939,-0.7,-6.9
CC(=O)Nc1cccc(C(=O)N/N=C/c2cccnc2)c1,/,/,/,/,4271,4.4,-25.8
CSc1cnn(Cc2ccccc2)c(=O)c1SCc1ccccc1,10.6,7.4,-8.5,6.8,2206,-14.0,-10.3
CC1CN(S(=O)(=O)c2ccc(NC(=O)c3cc(-c4ccccc4O)n[nH]3)cc2)CC(C)O1 (stereo not given),-4.6,0.1,-24.9,14.4,3417,-5.3,-10.7
COc1ccccc1C=CC1=NC(=CC=Cc2ccccc2)C(=O)O1,-0.6,12.3,3.8,12.8,/,/,/
Cn1c2c(c(=O)n(C)c1=O)[C@@]1(C(=O)Nc3ccccc31)C(C#N)=C(N)O2,4.7,-6.1,29.1,87.0*,2436,3.8,-15.6
O=C(NCCCN1CCCC1=O)c1cc(-c2ccc(F)cc2)nc2ccccc12,-0.6,2.9,-3.9,0.9,2893,/,-16.5
Cc1cccc(C(=O)c2c(N)sc3c2CCCC3)c1,9.1,5.6,1.3,8.0,2273,8.6,-20.4
OCC[C@@H]1C[C@@H](O)[C@H](O)[C@]2(Cc3ccccc3O2)O1,/,/,/,/,4176,9.4,-14.8
COc1cccc(-c2nn(-c3ccccc3)cc2CN(C)C(C)c2ccncn2)c1 (stereo not given),-4.0,7.3,-6.9,5.6,2348,-2.6,-9.6
COCCNC(=O)C(=O)NCC1OCCN1S(=O)(=O)c1ccc(C)cc1 (stereo not given),14.4,6.8,4.0,3.5,5227,-15.1,-8.6
Cn1c(NC(=O)CC(C)(C)C)cc(=O)n(C)c1=O,7.3,3.8,0.1,2.0,5610,/,-11.7
O=C(COc1nnc2ccccn12)N1CCN(S(=O)(=O)c2ccccc2)CC1,/,/,2.7,1.1,4111,0.3,-4.2
COc1ccccc1CNS(=O)(=O)c1cc(-c2cc(C)no2)ccc1C(C)C,4.2,2.4,22.2,8.5,5580,-4.0,-1.8
O=C(O)c1ccc2c(c1)[C@@H]1C=CC[C@@H]1[C@H](c1ccccn1)N2,7.7,9.9,-13.0,11.1,5141,-3.8,-17.7
Cc1ccc(C(=O)c2cc3ccccc3o2)cc1[N+](=O)[O-],4.7,7.5,6.6,12.5,2619,-4.4,-58.7
# (listing goes on)
SMILES,Mtb hypoxia inh,Mtb hypoxia inh growth,ugtP null kill,RN4220 kill,Bead autofluor,BJeLR viability,PrP UTR inh
C/C(=N\NC(=O)c1nnn(-c2nonc2N)c1CN(C)c1ccccc1)c1cccc(O)c1,/,/,/,/,6762,0.5,11.9
CC(=O)c1ccc(S(=O)(=O)N2CCN(C(=O)C3CCCC3)CC2)cc1,-2.0,4.3,7.7,1.1,3835,5.3,-9.9
Cc1ccccc1NS(=O)(=O)c1nnc(NC(=O)c2ccccc2F)s1,5.1,8.2,3.2,7.7,4425,-0.9,-15.6
CCOc1ccc(NC(=O)CN(C)C(=O)c2ccccc2SCC(=O)N2CCCC2)cc1OCC,-4.4,-6.9,12.7,6.2,4192,-2.2,-9.3
CCn1c(SCC(=O)Nc2ccccc2F)nnc1-c1ccoc1C,14.3,2.6,-2.5,3.9,5218,-5.8,-23.6
COCCNC(=O)CN1CCC(NC(=O)c2ccco2)CC1,1.1,1.4,-0.1,0.0,2653,14.4,-3.1
CC1CCN(c2oc(-c3ccccc3F)nc2C#N)CC1,/,/,-10.0,3.1,6240,-14.4,0.5
COc1ccc(C(=O)OCC(=O)c2ccc[nH]2)c(OC)c1,3.8,5.7,11.7,6.7,3458,/,-61.8
O=C(CSc1nc2ccsc2c(=O)n1CC1CCC(C(=O)O)CC1)c1ccc(Cl)cc1 (stereo not given),7.9,0.0,-11.0,10.1,4396,3.6,-8.7
COc1ccc(C(=O)Oc2ccc[nH]c2=O)cc1,5.4,7.1,-0.4,1.6,2918,-5.4,-12.0
CC(C)(C)OC(=O)NCCc1nnc(SCc2cccc(Cl)c2)o1,8.1,13.4,-0.8,3.7,6085,-12.4,-12.3
OCC1CCCCN1C(=S)NCc1ccco1 (stereo not given),16.6,-5.9,3.4,0.6,5856,0.4,-18.6
COc1ccc(C(=O)COC(=O)C(CCSC)NC(=O)COc2ccccc2)cc1 (stereo not given),-8.2,-9.8,-4.3,-0.6,?,-3.6,2.2
CCCCNC(=O)CN1C(=O)C(CC)Oc2ccc(Cl)cc21 (stereo not given),8.0,5.1,1.8,-1.0,7447,10.0,-10.0
COc1ccc(Cl)cc1NC(=O)NCCCl,-6.2,-14.0,-8.0,-8.3,3086,-5.1,-18.9
COC(=O)c1c(NC(=O)c2ccc(Br)s2)sc2c1CCC2,13.1,9.2,-0.7,8.3,21623*,3.6,-15.5
Cc1ccc(SCC(=O)c2cc(C)c(O)c(C)c2)cc1,7.8,-2.3,58.1,10.3,3071,-7.2,-40.2
COC(=O)C1=C(c2ccc(C(C)=O)cc2)CC2CCC1N2C(=O)NCCNC(C)=O (stereo not given),2.1,4.5,-1.1,3.6,/,/,/
